H5N1 antiviral: MDCK cell protection from H5N1 avian flu; inhibition, % at 50 µM; cytopathic effect, luminescence, 72 h; hits give high values; no value below 0 was filed and about half of the inactive calls have no number; reference of the scale not given here; 0.07% of 96,000 active; AID 740; in the data active = inhibition above about 25%
* marks the source's active call; other numbers are inactive results; i = inactive. A portion of the library; rates above refer to the full screens.

SMILES	H5N1 antiviral
Fc1cccc(Cl)c1CSc1nnnn1-c1ccc2c(c1)OCO2	0.7
CCn1c(Cc2ccccc2)nnc1SCC(=O)Nc1ccc2c(c1)OCO2	i
Cc1cnc(C(=O)OCC(=O)c2csc(N3CCCCC3)n2)cn1	i
CC12CN3CC(C)(CN(C1)C31CCSCC1)C2=O	0.2
O=C(Nc1ccc(S(=O)(=O)Nc2nccs2)cc1)C1CCCCC1	0.9
CCCN(C(=O)Cn1ncc2c(=O)oc3ccccc3c21)c1cccc(C)c1	2.2
Cc1ccc(-c2noc(CCC(=O)Nc3cc(C)ccn3)n2)cc1	i
CCOC(=O)Nc1nc(C)c(C(=O)c2ccc(Cl)cc2)s1	i
CC1CCCCC12NC(=O)N(CC(=O)NC(=O)Nc1ccc3c(c1)OCCO3)C2=O (stereo unspecified)	0.5
Cn1c(CN2CCOCC2)nnc1SCC(=O)Nc1nccs1	0.5
COc1ccc(CNC2CC(=O)N(C)C2=O)cc1 (stereo unspecified)	i
C=CCSc1nnc2nc3[nH]c4c(C)cccc4c3nn12	2.0
N#Cc1ccc(C(=O)Nc2ccc(N3CCN(C(=O)c4ccco4)CC3)cc2)c(F)c1	i
CCCCn1c(SCC(=O)NCc2ccco2)nnc1-c1ccco1	2.0
Cc1ccc(NC(=O)CN(c2ccccc2F)S(C)(=O)=O)cc1	0.6
COc1ccc(N2CCN(C(=O)c3ccncc3)CC2)cc1	0.9
O=C(CCN1C(=O)c2ccccc2C1=O)Nc1ccccn1	1.3
CSCCC(NC=C1C(=O)OC(C)(C)OC1=O)C(=O)O (stereo unspecified)	i
COc1cccc(Nc2nnc(SCC(=O)N3CC(C)OC(C)C3)s2)c1 (stereo unspecified)	i
O=C(C1CCC(=O)N1Cc1ccc(F)cc1)N1CCC2(CC1)OCCO2 (stereo unspecified)	i
OC1CCN(C(=S)NCCc2ccccc2)CC1	0.2
c1ccc2nc(N3CCOCC3)c(N3CCOCC3)nc2c1	0.3
Fc1ccc(CN2CCCCCC2)c(F)c1	0.4
N#CC1=C(SCc2ccc(C#N)cc2)N=C(N)C(c2nc(-c3ccccc3)cs2)C12CCCCC2 (stereo unspecified)	i
COC(=O)c1cc(Cc2ccc(N)c(C(=O)OC)c2)ccc1N	0.3

(further entries)
SMILES	H5N1 antiviral
CCCC(C)C1(CC)C(=O)NC(=Nc2ccccc2OC)NC1=O (stereo unspecified)	i
COc1ccc(S(=O)(=O)N2CCCC2C(=O)Nc2ccc(C(C)=O)cc2)cc1 (stereo unspecified)	0.3
CCN(CC)S(=O)(=O)c1ccc(C(=O)N2CCCCC2)cc1	i
Cn1c(C(=O)N2CCC(C(=O)N3CCN(Cc4ccc5c(c4)OCO5)CC3)CC2)cc2sccc21	1.5
O=C(COc1cccc2ccccc12)NNC(=O)c1cccs1	i
CCOC(=O)C(NC(=O)CC)(Nc1ccc(S(=O)(=O)Nc2cc(C)on2)cc1)C(F)(F)F (stereo unspecified)	0.5
CCOC(=O)CSc1nnc2n(C3CCCCC3)c(=O)c3c4c(sc3n12)CCCC4	1.4
O=c1[nH]c2ccc(Cl)cc2c(-c2ccccc2)c1SC(=S)N1CCCCC1	1.9
Cc1ccc(C(C(=O)NC2CCCC2)N(C(=O)Cc2cccs2)c2ccc(C)c(C)c2)o1 (stereo unspecified)	i
COCc1cc(=O)n2[nH]c(C)nc2n1	0.0
O=C(Nc1ccncc1)c1c(F)cccc1F	2.1
CCCCn1c(CN2CCN(C)CC2)nc2ccccc21	0.1
O=C(COc1cccc2ccccc12)Nc1nc2ccccc2[nH]1	i
COC(=O)c1ccc(NS(=O)(=O)c2cc(C)ccc2OC)cc1	1.2
CCCCc1ccc(-c2nc(-c3ccncc3)no2)cc1	i
COc1cccc(N(CC(=O)NCCSc2ccc(Cl)cc2)S(C)(=O)=O)c1	i
CS(=O)(=O)Nc1ccccc1C(=O)O	0.4
CC1=C(C)CC(C(=O)NCC(=O)c2ccccc2)C(C(=O)O)C1 (stereo unspecified)	i
Cc1c(C(=O)NCc2cccs2)oc2ccc(S(=O)(=O)N3CCOCC3)cc12	0.3
N#Cc1c(NC(=O)CSc2nc3c(c(C(F)(F)F)n2)CCc2ccccc2-3)sc2c1CCCC2	i
CCCc1nnc2n1N=C(c1ccc(-c3cc(Cl)ccc3Cl)o1)CS2	i
Cc1ccc(NC(=O)c2cn(-c3cccc(C)n3)cn2)cc1	i
C=CCNc1ncnc2c1[nH]c1ccc(C)cc12	3.0
CCCCN(CC)c1nc(N)c(C#N)c(CC#N)c1C#N	i
COc1ccc(-n2c(COc3ccccc3)nnc2SCC(N)=O)cc1	0.0

Next part; the last two above are carried over.
SMILES	H5N1 antiviral
CCCCN(CC)c1nc(N)c(C#N)c(CC#N)c1C#N	i
COc1ccc(-n2c(COc3ccccc3)nnc2SCC(N)=O)cc1	0.0
Cc1ccc(S(=O)(=O)Cn2nnnc2CN2CCCC3(CCCCC3)C2)cc1	3.7
CCN1CCN(c2cc(=O)n(-c3cc(Cl)ccc3C)c(=O)[nH]2)CC1	0.2
CC(=O)c1c(C)[nH]c(C(=O)NCCC2=CCCCC2)c1C	i
O=C(COC(=O)Cn1c(C(F)(F)F)nc2ccccc21)Nc1ccc2c(c1)OCCO2	i
O=C(Nc1cccnc1)c1cccc(NC(=O)c2ccco2)c1	i
O=C(CCNC(=O)c1ccc(Br)o1)NCc1ccccc1Cl	0.7
CCC(C)C(=O)Nc1nc(-c2ccc3c(c2)NC(=O)CO3)cs1 (stereo unspecified)	i
CCn1c(=O)c(C(=O)CN2CCCc3ccccc32)c(N)n(Cc2ccccc2)c1=O	i
Cn1c(C(=O)Nc2ccc3c(c2)OCO3)cc2c(=O)n(C)c3ccccc3c21	1.1
CCOC(=O)N1CCN(C(=O)c2cc(-n3cnnc3)ccc2Cl)CC1	i
O=c1nc(N2CCCCC2)nc2n1CCO2	i
COc1ccccc1C1NC(=O)NC(C)=C1C(=O)Nc1cccc(C)c1C (stereo unspecified)	3.4
Cc1ccc(CNC(=O)CC2C(=O)Nc3c2c(=O)n(C)c(=O)n3Cc2ccccc2)cc1 (stereo unspecified)	i
COC(=O)c1ccc(COc2ccc(/C=C(\C#N)c3nc4ccccc4[nH]3)cc2OC)o1	i
O=C(c1ccco1)N1CCN(C(c2cccs2)c2nnnn2C2CCCCC2)CC1 (stereo unspecified)	2.5
COc1c(/C=N/Nc2ccc([N+](=O)[O-])cc2[N+](=O)[O-])c(C)nn1-c1ccccc1	i
COC(=O)c1ccc(COc2ccccc2/C=N/NS(=O)(=O)c2ccccc2)cc1	2.0
Cc1onc(-c2c(Cl)cccc2Cl)c1C(=O)N1CCc2ccccc2C1	1.2
CN1C(=O)CSc2ccc(NC(=O)NCc3ccco3)cc21	i
Cc1c(-n2cc(C(=O)c3ccccc3O)cc(C#N)c2=O)c(=O)n(-c2ccccc2)n1C	1.4
Cc1cc(C)n(CC(=O)NCc2cc(-c3nn(C)c(=O)c4ccccc34)ccc2C)n1	i
Cc1cccc(C)c1NC1=NC(C)(C)N=C(N)N1	0.3
CC(C)Cn1c(N)c(C(=O)COC(=O)c2ccncc2)c(=O)n(C)c1=O	2.7
CC(=O)Nc1cccc(C(=O)OCc2ccc(C(=O)Oc3ccc(Cl)cc3)cc2)c1	i
O=C(C[n+]1cccc(NC(=O)c2ccccc2)c1)c1ccc(NC(=O)c2ccccc2)cc1	i

Following part.
SMILES	H5N1 antiviral
CN(Cc1ccccc1)Cc1nc2c(c(=O)n(C)c(=O)n2C)n1Cc1ccc(F)cc1	1.4
CC(O)(C#CCN1CCOCC1)c1ccccc1 (stereo unspecified)	i
CCCCCCOc1ccc(C(CC(=O)O)C(N)=O)cc1 (stereo unspecified)	i
COc1cccc(C(=O)N2CCN(c3ncccn3)CC2)c1	i
Cc1ccc(S(=O)(=O)N[C@@H](C)C(=O)N2CCC(C(=O)N3CCC[C@H]3C(=O)O)CC2)cc1	i
CC(/C=N/NC(=O)c1cc(-c2ccc(Cl)cc2)nc2ccccc12)=C\c1ccco1	i
O=C1CN(Cc2ccccc2)C(=NCc2ccco2)S1	i
O=C(Nc1ccccc1)N(CCCN1CCOCC1)Cc1cc2cc3c(cc2[nH]c1=O)OCCO3	4.9
COc1ccc(COn2c(=O)c(C)[n+]([O-])c3ccccc32)cc1OC	0.4
COc1cccc(CNc2ccc3c(c2)ncn3C(C)C)c1OC	0.2
O=C(NC1CC1)c1ccc(F)cc1Cl	i
Cc1ccc(NC(=O)C(Cc2ccccc2)NC(=O)c2ccco2)cc1 (stereo unspecified)	i
COc1cccc(NS(=O)(=O)c2ccc(NC(C)=O)cc2)c1	0.2
Cc1nc2cc(Cl)ccc2n1-c1ccccc1	2.3
Cc1nn(-c2ccccc2)c2[nH]c(C(F)(F)F)cc(=O)c12	0.3
COC(=O)c1cc(OC)c(OC)cc1NC(=S)N1CCN(Cc2ccccc2)CC1	0.3
CC(=NCC1CCCO1)c1c(O)n(C)c(=O)n(C)c1=O (stereo unspecified)	0.1
Nc1nc(SCc2ccccc2Cl)nc2nc3c(cc12)CCCC3	i
O=C(O)c1oc2ccccc2c1-n1cccc1	i
Cc1ccc(S(=O)(=O)/N=S(\C)CC2CC2(Cl)Cl)cc1 (stereo unspecified)	0.2
CCOC(=O)C1=C(C)C(c2ccc(OC)cc2)NC(=S)N1 (stereo unspecified)	i
O=C(NOC(=O)c1cc(Br)ccc1Cl)c1cccs1	i
COc1ccccc1OCCOc1ccc(/C=N/n2cnnc2)cc1	i
COc1cccc(Cn2c(Oc3cccc(C)c3)nc3c2c(=O)n(C)c(=O)n3C)c1	4.6
Cc1c(C(=O)N2CCc3ccccc3C2)sc2nc(-c3ccccc3)cn12	1.5

Other entries:
SMILES	H5N1 antiviral
O=C(COc1ccccc1Cl)Nc1cnn(Cc2ccccc2)c1	i
COc1ccc(C2Nc3ccccc3C(=O)N2c2ccccc2)cc1COc1ccccn1 (stereo unspecified)	0.3
O=C(Nc1cc(Cl)ccc1Cl)c1ccc(OC(=O)c2ccco2)cc1	1.6
Oc1ccccc1CN1CCCN(Cc2ccccc2O)C1	i
FC(F)(F)c1nnc2ccc(N3CCCCCC3)nn12	1.6
CCOC(=O)C1CCCN(c2c(N3CCN(c4ccccn4)CC3)c(=O)c2=O)C1 (stereo unspecified)	0.7
COc1ccc(/C=N/NC(=O)c2ccc(Cn3cc([N+](=O)[O-])cn3)o2)cc1O	i
O=C(NCc1ccc2c(c1)OCO2)C1CCN(S(=O)(=O)c2cccs2)CC1	i
CCn1c(=O)n(CC(=O)N(C)Cc2ccccc2)c(=O)c2ccccc21	1.6
O=C1C2C3C=CC(C3=C(c3ccccc3)c3ccccc3)C2C(=O)N1Cc1ccccc1 (stereo unspecified)	i
Cc1oc(-c2ccccc2)nc1C(=O)Nc1nccs1	i
COC(=O)CN(c1ccc(OC)cc1)S(=O)(=O)c1ccc(OC)c(OC)c1	i
Cc1ccc(-c2n[nH]c(=S)n2Cc2ccccc2)cc1	1.1
COc1ccc(CNc2nn[nH]n2)cc1OC	0.8
CNc1ncc(C(=O)c2ccc(Cl)cc2)s1	i
Cc1[nH]n(C(N)=S)c(=O)c1N=Nc1ccc(S(=O)(=O)N2CCCCCC2)cc1	0.4
COc1ccc(C2(C(=O)N3CCOCC3)CCCC2)cc1	0.4
COc1cc(OC)c(NC(=O)CCc2nc(-c3ccc(C)cc3)no2)cc1Cl	1.6
CNC(C(=O)c1ccccc1)C(OC(C)C)c1ccc(Cl)cc1 (stereo unspecified)	0.1
CN(c1ccc(C(=O)N2CCN(c3ccc(F)cc3)CC2)cc1)S(C)(=O)=O	0.8
CCOP(=O)(OCC)c1nc(/C=C/c2ccccc2)oc1NCc1ccc(OC)cc1	0.2
COc1cccc(/C=N/Nc2nc(Nc3ccccc3)nc(-n3nc(C)cc3C)n2)c1O	1.8
COc1cccc(-c2csc3nc[nH]c(=O)c23)c1	i
CCN1c2ccccc2-c2nc3ccccc3n2C1c1ccco1 (stereo unspecified)	i
C=C(Br)Cn1c(CCC)nc2ccccc21	i

Shown as a markdown table: 5 of the compounds above
| Structure | H5N1 antiviral |
| --- | --- |
| FC(F)(F)c1nnc2ccc(N3CCCCCC3)nn12 | 1.6 |
| CCOC(=O)C1CCCN(c2c(N3CCN(c4ccccn4)CC3)c(=O)c2=O)C1 (stereo unspecified) | 0.7 |
| COc1ccc(/C=N/NC(=O)c2ccc(Cn3cc([N+](=O)[O-])cn3)o2)cc1O | i |
| O=C(NCc1ccc2c(c1)OCO2)C1CCN(S(=O)(=O)c2cccs2)CC1 | i |
| CCn1c(=O)n(CC(=O)N(C)Cc2ccccc2)c(=O)c2ccccc21 | 1.6 |

An excerpt of these results, field by field:
FC(F)(F)c1nnc2ccc(N3CCCCCC3)nn12
  H5N1 antiviral = 1.6

CCOC(=O)C1CCCN(c2c(N3CCN(c4ccccn4)CC3)c(=O)c2=O)C1 (stereo unspecified)
  H5N1 antiviral = 0.7

COc1ccc(/C=N/NC(=O)c2ccc(Cn3cc([N+](=O)[O-])cn3)o2)cc1O
  H5N1 antiviral = i

O=C(NCc1ccc2c(c1)OCO2)C1CCN(S(=O)(=O)c2cccs2)CC1
  H5N1 antiviral = i

Remaining list, next part:
SMILES	H5N1 antiviral
C=CCSc1nc(O)c(CC)c(=O)n1C(C)CC (stereo unspecified)	0.6
CCOC(=O)C1CCCN(C(=S)Nc2cc(C)cc(C)c2)C1 (stereo unspecified)	0.9
O=C(CS(=O)(=O)Cc1ccccc1)N1CCN(Cc2ccc3c(c2)OCO3)CC1	1.3
CCCOC(=O)c1c(NC(=O)/C=C/c2cnn(C)c2C)sc(C(=O)OC)c1C	i
Cc1cc(C)n(-c2nc(NCCCO)c3c4c(sc3n2)CCCC4)n1	12
O=c1[nH]c(SCc2ccccc2Cl)nc2c1CCC2	0.9
CC(=O)Nc1cccc(C(=O)Nc2ccccc2N2CCOCC2)c1	1.6
Cc1oc(-c2ccccc2Cl)nc1CSCC(=O)NC1CC1	0.7
O=C1/C(=C\c2ccc3c(c2)OCO3)CCC/C1=C/c1ccc2c(c1)OCO2	i

5 entries picked at random from the list so far:
SMILES	H5N1 antiviral
CCN(CC)S(=O)(=O)c1ccc(C(=O)N2CCCCC2)cc1	i
CCn1c(=O)c(C(=O)CN2CCCc3ccccc32)c(N)n(Cc2ccccc2)c1=O	i
Cn1c(C(=O)N2CCC(C(=O)N3CCN(Cc4ccc5c(c4)OCO5)CC3)CC2)cc2sccc21	1.5
Cc1c(C(=O)NCc2cccs2)oc2ccc(S(=O)(=O)N3CCOCC3)cc12	0.3
COc1ccccc1OCCOc1ccc(/C=N/n2cnnc2)cc1	i

Screening data deposited in PubChem BioAssay by SRMLSC.
